Source: PubChem BioAssay
gsp antagonist = qHTS for Antagonists of gsp, the Etiologic Mutation Responsible for Fibrous Dysplasia/McCune-Albright Syndrome: qHTS. gsp-mutant cells, cAMP HTRF, 30 min; control for the full effect not named in the record. 0.4% of 340,000 active. Potency, µM (doses to about 76.9 µM), for inactives: top-dose activity change, negative = inhibition, usual class: inhibitors; active = falling curve of any shape with a large fitted effect; inconclusive = falling curve, mostly with a smaller effect; inactive = flat or rising curve; cell line not stated here;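 further: intracellular cAMP measured with PDE inhibitor Ro 20-1724 present during compound exposure; potency means the concentration at half of the fitted maximal effect; on the % scale 0 is the no-effect control and ±100 the full control effect; nearly all actives have a fitted effect of over 65% in size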
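G418-selected cells were plated in DMEM/10% FBS for 16-24 h at 37C, then treated with compounds plus the PDE inhibitor […] (300 uM solution added) for 30 min at 37C. Intracellular cAMP was measured by HTRF after 30 min lysis at room temperature.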
D2 PAM = Beta-Arrestin HTS for Positive Allosteric Modulators of the Human D2 Dopamine Receptor: Potentiators | D(2) dopamine receptor (Homo sapiens), P14416 | 0.23% of 360,000 active | DiscoveRx D2 beta-arrestin cells, luminescence, 90 min; 100% = 57 uM dopamine signal | potentiation, % (concentration not given with the values); active = potentiation of 50% or more; inconclusive = 30% to 50%; inactive = 30% or less;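 further: compound concentration not given in the record; tested on top of an EC20 dose of dopamine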
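PathHunter D2 cells, attached overnight at 37 deg C, received compound in DMSO plus dopamine at EC20 (50 nM final) for 90 min at 37 deg C. Beta-arrestin recruitment was read as luminescence after 1 h with detection reagent at ambient temperature.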
ClpP mod = qHTS Assay for Activators of ClpP. ATP-dependent Clp protease proteolytic subunit (Bacillus subtilis (strain 168)), P80244. purified B. subtilis ClpP, FRET peptide cleavage, 20 min. Potency, µM (series often up to 57.5 µM), without a hit: at the highest dose activity change, negative = active. 1.9% of 340,000 active. AID 651965, 2013; active = well fitted falling curve with a large enough effect; inconclusive = small, poorly fitted or top-dose-only effect; inactive = no such curve, though single readings can be large or run the other way; further: potency means the concentration at half of the fitted maximal effect; the source files actives as falling curves though it sought activators and does not explain the sign; nearly all actives have a fitted effect of over 65% in size; many hits overshoot -100%
Target sequence (P80244 whole entry, looked up): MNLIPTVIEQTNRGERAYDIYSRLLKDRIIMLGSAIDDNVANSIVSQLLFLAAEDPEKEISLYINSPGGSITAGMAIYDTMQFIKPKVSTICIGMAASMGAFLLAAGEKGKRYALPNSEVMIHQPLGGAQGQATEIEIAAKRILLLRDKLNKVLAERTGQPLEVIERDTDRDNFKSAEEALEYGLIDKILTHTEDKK
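Purified B. subtilis ClpP, 10 microg/mL final in Tris/HCl pH8 with KCl, BSA, glycerol and Tween-20, cleaved an Abz/nitrotyrosine-quenched decapeptide. Fluorescence (ex 320, em 430) was read at 0 and 20 min at room temperature. Delta was normalized to 5.8 microM ADEP and DMSO/no-enzyme controls.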
Menin-MLL FL inh = qHTS Assay for Inhibitors Targeting the Menin-MLL Interaction in MLL Related Leukemias: Competition With Fluorescein Labeled MLL-derived Peptide. Fluorescence polarization, fluorescein-MLL peptide displacement from menin. FP activity change, % at 61.4 µM. 290,000 tested, under 10 active; inconclusive = falling polarisation curve, or a change in total fluorescence; inactive = total fluorescence flat and polarisation flat or rising; no compound was filed as active; the % refers to the polarisation; negative = inhibition;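 further: % of control where 0% means no effect; inhibitors lower the polarisation; unlabelled MLL peptide was the positive control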
TRPV1 PAM = HTS Assay for Compounds that Act as Potentiators of the Vanilloid Receptor 1; potentiation, % at 8.33 µM; Transient receptor potential cation channel subfamily V member 1 (Homo sapiens), Q8NER1; 0.02% of 320,000 active; TRPV1-expressing cells, Fluo-8 calcium influx, capsaicin EC20 potentiation; host cell line not named in the record; control for the full effect not named in the record; active means potentiation above 80%; inconclusive means 30% to 80%; inactive means below 30%; further: 0% is about no effect
Target sequence (Q8NER1 whole entry, looked up): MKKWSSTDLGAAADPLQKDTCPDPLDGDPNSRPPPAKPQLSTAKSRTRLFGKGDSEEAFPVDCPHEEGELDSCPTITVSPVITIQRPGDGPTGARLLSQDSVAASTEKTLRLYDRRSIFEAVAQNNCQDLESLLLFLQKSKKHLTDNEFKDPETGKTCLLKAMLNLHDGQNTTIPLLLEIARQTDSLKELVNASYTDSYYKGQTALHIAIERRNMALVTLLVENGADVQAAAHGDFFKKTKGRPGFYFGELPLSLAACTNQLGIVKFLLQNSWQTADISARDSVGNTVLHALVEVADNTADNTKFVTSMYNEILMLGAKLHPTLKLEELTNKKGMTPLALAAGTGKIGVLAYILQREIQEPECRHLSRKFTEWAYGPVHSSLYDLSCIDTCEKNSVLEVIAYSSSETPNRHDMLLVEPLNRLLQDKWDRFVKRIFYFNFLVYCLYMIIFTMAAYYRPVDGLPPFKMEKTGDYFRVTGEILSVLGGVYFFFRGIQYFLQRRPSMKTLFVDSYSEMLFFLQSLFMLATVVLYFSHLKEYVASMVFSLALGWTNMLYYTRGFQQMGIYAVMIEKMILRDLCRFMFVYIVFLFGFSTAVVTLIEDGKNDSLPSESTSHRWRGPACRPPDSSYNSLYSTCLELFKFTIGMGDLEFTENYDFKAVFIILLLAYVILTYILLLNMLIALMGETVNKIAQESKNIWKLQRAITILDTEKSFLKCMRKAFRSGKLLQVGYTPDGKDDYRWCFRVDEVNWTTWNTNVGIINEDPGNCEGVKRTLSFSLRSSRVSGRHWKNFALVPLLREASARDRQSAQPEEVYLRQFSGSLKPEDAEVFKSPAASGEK
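Fluo-8 calcium influx in TRPV1-expressing cells, kinetic read (ex 480/em 520 nm). Compound added and read 3 min for agonist activity, followed by capsaicin at EC20 final and 2 min further read for enhancement.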
Sfp inh = qHTS Assay for Inhibitors of Bacillus subtilis Sfp phosphopantetheinyl transferase (PPTase); 4'-phosphopantetheinyl transferase ffp (Bacillus subtilis), Q9F4F7; Biochemical Sfp PPTase activity, qHTS; Potency, µM, for inactives: max response, negative = inhibition, actives largely listed as inhibitors; 3.5% of 310,000 active; AID 1490, 2009; active means well fitted inhibition curve with a large enough effect; inconclusive means small, poorly fitted or top-dose-only effect, or another doubt; inactive means no such curve, though single readings can be large or run the other way;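 further: the enzyme is Sfp with the accession as filed and its product quenches rhodamine fluorescence; potency means the concentration at half of the fitted maximal effect; 0% = enzyme reaction without inhibitor and -100% = no enzyme wells; top concentration of the series not given in the record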
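Fluorescence-quenching assay with 15 nM Sfp, 5 uM rhodamine-CoA and 12.5 uM BHQ-2-labelled ybbR peptide in pH 7.6 Hepes/MgCl2 buffer. Enzyme was pre-incubated with compound for 15 min at room temperature. Rate was taken from the 30-min fluorescence change (525/598 nm).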
gsp ag = qHTS for Agonist of gsp, the Etiologic Mutation Responsible for Fibrous Dysplasia/McCune-Albright Syndrome: qHTS; gsp mutant cells, cAMP HTRF, 30 min; control for the full effect not named in the record; Potency, µM (titrated, usually from 76.9 µM), for inactives: at the top dose activation (cAMP increase), most hits filed as activators; 0.13% of 340,000 active; AID 624287, 2012; active = well fitted activation curve with a large enough effect; inconclusive = small, poorly fitted or top-dose-only effect, or another doubt; inactive = no such curve, though single readings can be large or run the other way; cell line not stated here;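 further: phosphodiesterase inhibitor Ro 20-1724 added with compounds to block cAMP breakdown; potency means the concentration at half of the fitted maximal effect; nearly all actives have a fitted effect of over 60% in size; about a fifth of the inactives were tested at one dose only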
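Cells in DMEM/10% FBS with G418 were pretreated with compounds in DMSO plus […] (300 uM stock) for 30 min at 37C. cAMP was measured by HTRF (cAMP-d2 plus anti-cAMP antibody-K) after 30 min at room temperature.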
An asterisk follows results filed as active; ? = inconclusive; · = not tested or not shown; & = joins results of further samples; [ ] = another dose, or the depositor's remark.

SMILES | gsp antagonist | D2 PAM | ClpP mod | Menin-MLL FL inh | TRPV1 PAM | Sfp inh | gsp ag
Cc1ccc(CN2CCN(Cc3cn[nH]c3-c3ccccc3)CC2CCO)o1 (stereo not given) | 1% | -8 | · | -0.3 | -8 | 12% | 1%
CCOc1ccc(CN(C(=O)c2cc(=O)c3cc(C)cc(C)c3o2)C2CCS(=O)(=O)C2)cc1 (stereo not given) | -14% | -7 | 1.9%&1.4% | · | -1 | 1% | 5%
O=C(CNC(=O)c1ccc(Br)cc1)NC1CC1 | 1% | -1 | 2.6% | · | -5 | · | -36%[inhibitor]
CCC(=O)/C=C1\Sc2ccc(OC)cc2N1CC | -23% | -6 | -10% | 3.9 | -7 | 50µM* | 0%
COc1ccc(Oc2cccc(Cl)c2CNC(=O)CC(C)(C)CC(=O)O)cc1 | -3% | -4 | · | 6.6 | 3 | 9% | ?
Cc1ccc(C(=O)CSc2nnc3c4ccccc4nc(C(C)(C)C)n23)cc1 | -1% | -3 | · | 0.9 | 27 | -11% | 23%
O=C(CNCC1CCCCC1)Nc1cccc(S(=O)(=O)N2CCOCC2)c1 | 4% | 4 | -0.8% | -3.2 | -18 | ? | 21%
COc1ccc(NC(=O)CN2CCC(NC(=O)c3ccc(OC)cc3)CC2)cc1 | -11% | -3 | -0.1% | -5.3 | -5 | 3% | 20%
O=C1N(CCCN2C(=O)C3(OCCO3)c3ccccc32)c2ccccc2C12OCCO2 | -15% | -2 | 1.2% | 2.2 | 4 | 7% | -29%
Cc1cc2nc(CCN(C(=S)NCC3CCCO3)C3CCCC3)[nH]c2cc1C (stereo not given) | -10% | -8 | -7.1% | -5.7 | -5 | 7% | -17%
COc1ccc(Cl)cc1Nc1nc(N2CCCC2)nc(N2CCCC2)n1 | · | · | · | 3.6 | 2 | 20% | ·
COc1ccc(C(c2nnnn2C(C)(C)C)N2CCN(c3nc4ccccc4s3)CC2)cc1OC (stereo not given) | -12% | -2 | 2.0% | 0.3 | 5 | 4% | -20%
COc1ccc(S(=O)(=O)N(C)C[C@H]2Oc3c(NC(=O)Cc4ccccc4)cccc3C(=O)N([C@H](C)CO)C[C@@H]2C)cc1 | -24% | -9 | -1.6% | · | · | · | ·
Cc1cccc(-n2c(C)cc(C=C(C#N)C#N)c2C)c1 | -3% | -17 | 1.1% | 2.8 | -13 | -4% | 32%
Cc1cc(C(=O)NNC(=S)Nc2ccccc2C)cs1 | 10% | -32 | 5.6% | -0.7 | 7 | 7% | -5%
COc1ccc(N(CC(=O)NC2CCCCC2)C(=O)CNC(=O)c2ccco2)cc1OC | 1% | -19 | -1.0% | 2.4 | 5 | 24% | 18%
OCCCn1c(CCCNc2nc(-c3cccc(Br)c3)cs2)nc2cc(Cl)c(N3CCCCC3)cc21 | -17% | -3 | -3.3% | 5.4 | -3 | 11% | ·
C/C=C/c1ccc(OCC(=O)Nc2cc(S(=O)(=O)N3CCOCC3)ccc2N2CCCC2)c(OC)c1 | -20% | -8 | -12% | · | 0 | · | -60%[inhibitor]
O=[N+]([O-])c1ccc(/C=N/Nc2ncc(-c3ccccc3)cn2)cc1 | -5% | 1 | · | 1.0 | -9 | 10% | -21%[15.4 µM]
O=C(N/N=C/c1cc(Br)cs1)C(O)c1ccccc1 (stereo not given) | 0% | -5 | -0.2% | 2.5 | -5 | 15% | -6%[15.4 µM]
COc1ccccc1NC(=O)C1=C(C)Nc2nnnn2C1c1ccncc1 (stereo not given) | 7% | -3 | -2.3% | 6.8 | -4 | 16% | 27%
CCCOc1ccc(Cc2c(O)nc(SC)[nH]c2=O)cc1 | 1% | -3 | · | 0.6 | 13 | 4% | -42%[inhibitor]
Cc1cccc(N2CCN(C(=O)c3cccc(NC4=NC5CS(=O)(=O)CC5S4)c3)CC2)c1C (stereo not given) | 8% | -5 | 2.7% | -1.7 | -7 | 5% | 21%
C=CCn1c(COc2ccccc2F)nnc1SCC(=O)Nc1cc(C)on1 | 12% | -15 | · | 0.1 | -18 | 9% | 8%[15.4 µM]
Cc1ccccc1NC(=O)Cc1nc(COC(=O)c2ccccn2)cs1 | 4% | -4 | 0.4% | · | -3 | · | 7%
CCOc1ccc(Cl)cc1CNCCCSc1nc(C)cc(C)n1 | 6% | -11 | 4.6% | -3.8 | -13 | -14% | 7%
COc1ccc(-n2c(=O)c3c4c(sc3n(CC(N)=O)c2=O)CCCCC4)cc1 | -18% | -17 | 1.4% | 3.0 | -50 | -11% | -7%[15.4 µM]
O=S(=O)(Nc1ccc(O)c2ccccc12)c1cccs1 | 3% | 20 | -0.5% | -25 | 2 | ? | 14%[15.4 µM]
COC(=O)C(C)N(c1ccc(C)cc1)S(=O)(=O)c1c(C)[nH]c(=O)[nH]c1=O (stereo not given) | -3% | 6 | -1.5% | -0.9 | -5 | 7% | -27%
COc1ccc2c(c1)CCCC(Br)C2=O (stereo not given) | -2% | 10 | -1.0% | · | · | · | ?
CC(=O)C1=C(C)N(Cc2ccccc2)C(=O)N[C@H]1c1ccco1 | -5% | 4 | -0.5% | ? | -34 | -18%&-9% | ?
Cc1ccccc1NC(=S)N(C)Cc1cn(C)c2ccccc12 | 7% | -6 | 1.4% | 7.0 | 2 | 19% | 4%
Cn1cc(-c2ccc(Cl)cc2)cc(C#N)c1=O | -3% | 7 | · | 4.0 | 15 | 14% | 25%[15.4 µM]
Cc1ccc(CNC(=O)c2cc3c(=O)n4ccccc4nc3n(CC3CCCO3)c2=N)cc1 (stereo not given) | 12% | 14 | ? | 7.3 | 19 | 7% | ?
CCSc1nnc(NC(=O)C2C3CCC(C3)C2C(=O)O)s1 (stereo not given) | 12% | 8 | · | -1.1 | 18 | -4% | -7%
COc1ccc(Nc2ncnc3ccc(Br)cc23)cc1OC | 2% | -1 | · | 1.9 | 6 | 8% | 29%
C=CCn1c(COc2cccc(C)c2)nnc1SCn1nnc2ccccc2c1=O | 0% | -9 | ? | 6.4 | -1 | 12% | 1%
O=C(CNC(=O)c1ccccc1Br)N/N=C/c1ccc(O)cc1 | 1% | 0 | · | 0.6 | 13 | 19% | 11%[15.4 µM]
CCOC(=O)C1CCN(C(=O)C(CCSC)NC(=O)COc2ccccc2)CC1 (stereo not given) | -8% | 0 | 1.0% | · | 5 | · | -1%
CC(O)CNCCCOc1cccc(Oc2ccccc2)c1 (stereo not given) | 8% | -9 | · | -7.2 | 2 | -21% | 16%
CCN(CC)CCN(C(=O)C1CCCCC1)c1nc2cc3c(cc2s1)OCO3 | -16% | -22 | -1.7% | -8.8 | -10 | 0% | 14%
CCOc1ccc(NC(=O)CN2C(=O)CCSc3ccc(S(=O)(=O)N4CCCC4)cc32)cc1 | 0% | 3 | -0.1%&-1.6% | · | 24 | -1% | 24%
COc1ccc(NC(=O)CSc2nc3ccccc3c(=O)n2CCCC(=O)NCC2CCCO2)c(OC)c1 (stereo not given) | -11% | -1 | 0.2% | 5.9 | -13 | 2% | -46%[inhibitor]
CCC(=O)c1ccc(OCC(=O)OCC(=O)c2cc(C)n(C)c2C)cc1 | -21% | -9 | 0.4% | · | -1 | 3% | 6%
O=C(NCc1nc2ccccc2[nH]1)c1ccc(S(=O)(=O)N2CCOCC2)cc1 | 6% | 8 | -5.9% | 3.7 | -5 | 10% | 0%
Cc1cc(C)n(C(=O)COc2c(C)cccc2C)n1 | 6% | 13 | -0.6% | -0.4 | 9 | 1% | -14%
Cc1ccccc1Cn1cc(NC(=O)CSc2nc3c(c(C(F)(F)F)n2)CCc2ccccc2-3)cn1 | -16% | 3 | 18% | 4.3 | · | ? | 15%
O=C(Nc1ccccc1Cl)c1sccc1-c1ccccc1 | -20% | -8 | · | 1.7 | 4 | 6% | 23%

Entries shown so far containing fluorine, in the order listed:
SMILES | gsp antagonist | D2 PAM | ClpP mod | Menin-MLL FL inh | TRPV1 PAM | Sfp inh | gsp ag
C=CCn1c(COc2ccccc2F)nnc1SCC(=O)Nc1cc(C)on1 | 12% | -15 | · | 0.1 | -18 | 9% | 8%[15.4 µM]
Cc1ccccc1Cn1cc(NC(=O)CSc2nc3c(c(C(F)(F)F)n2)CCc2ccccc2-3)cn1 | -16% | 3 | 18% | 4.3 | · | ? | 15%

Additional compounds follow.
SMILES | gsp antagonist | D2 PAM | ClpP mod | Menin-MLL FL inh | TRPV1 PAM | Sfp inh | gsp ag
Cc1nn(C2CCS(=O)(=O)C2)c(C)c1CN(C)C(=O)c1ccc(Cl)cc1 (stereo not given) | 9% | 0 | -2.9% | · | 12 | · | 13%
Cc1ccc(OCC(=O)N(Cc2cccc(F)c2)C2CCS(=O)(=O)C2)cc1 (stereo not given) | 15% | -8 | 0.7% | · | -1 | 6% | -19%
CC(C)CN1C(=O)C(=O)N(CC(=O)c2ccc3c(c2)OCO3)C1=O | 2% | 4 | · | · | -12 | · | 4%[15.4 µM]
CCN(CC(=O)Nc1ccc(NC(C)=O)cc1)C(=O)C1CC(=O)N(c2ccc3c(c2)OCCO3)C1 (stereo not given) | · | -9 | -1.4% | · | · | · | ?
COCCNc1ncnc2c1nc1n2CCCC1 | 9% | -10 | 0.5% | -1.1 | 23 | 20% | 20%
CC12CCC(=O)N1C(C(=O)N1CCN(S(=O)(=O)c3ccc(Br)cc3Cl)CC1)CS2 (stereo not given) | -1% | -1 | · | · | -22 | · | -18%[15.4 µM]
N#Cc1cccc(NC(=O)CCc2ccc(S(=O)(=O)N3CCOCC3)cc2)c1 | -9% | -5 | · | · | · | · | ?
